Bioassay records from PubChem BioAssay.
Vaccinia inh: blocks a specific stage of Vaccinia orthopoxvirus infection | Vaccinia-infected cells, mCherry/Venus stage reporter fluorescence; stronger effect = lower value; some inactives read as strong as hits | activity change (mCherry), % (concentration not given with the values) | 0.01% of 89,000 active;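 active = mCherry past -33% and 40 or more points under the early reporter, replicates agreeing; inconclusive = past -33% without that gap or agreement; tested in A549 cells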;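 also: scaled between vehicle wells and reference inhibitor wells; 23 nL library stock went into each well; one replicate is shown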
Vaccinia inh Venus: recorded beside Vaccinia inh, whose call it bears; activity change (Venus), %; measured here: Venus reporter, other viral stage;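 negative = less Venus signal; first of two replicates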
* = called active by the depositor; u = inconclusive; x = no result given. This is a subset. The share of hits here may be higher or lower than overall.

A first look (four entries):
Compound | Vaccinia inh Venus | Vaccinia inh
CS(=O)(=O)Nc1ccc2c(c1)[C@@H]1C[C@H](CC(=O)N3CCc4ccccc4C3)O[C@H](CO)[C@@H]1O2 | 6 | 9
C[C@@H]1CN([C@H](C)CO)C(=O)c2cc(NC(=O)Cn3cnnn3)ccc2O[C@@H]1CN(C)S(C)(=O)=O | 7 | 21
C[C@H]1CN([C@@H](C)CO)C(=O)c2cc(-c3ccccc3)cnc2O[C@@H]1CN(C)C(=O)Cc1ccccn1 | 6 | 21
CO[C@@H]1CN(C)C(=O)c2ccc(NC(C)=O)cc2OC[C@@H](C)N(S(=O)(=O)c2cn(C)cn2)C[C@H]1C | -5 | -2

Results, from the first entry:
Compound | Vaccinia inh Venus | Vaccinia inh
CS(=O)(=O)Nc1ccc2c(c1)[C@@H]1C[C@H](CC(=O)N3CCc4ccccc4C3)O[C@H](CO)[C@@H]1O2 | 6 | 9
C[C@@H]1CN([C@H](C)CO)C(=O)c2cc(NC(=O)Cn3cnnn3)ccc2O[C@@H]1CN(C)S(C)(=O)=O | 7 | 21
C[C@H]1CN([C@@H](C)CO)C(=O)c2cc(-c3ccccc3)cnc2O[C@@H]1CN(C)C(=O)Cc1ccccn1 | 6 | 21
CO[C@@H]1CN(C)C(=O)c2ccc(NC(C)=O)cc2OC[C@@H](C)N(S(=O)(=O)c2cn(C)cn2)C[C@H]1C | -5 | -2
C[C@@H]1CCCCO[C@@H](CN(C)C(=O)Nc2ccc(C(F)(F)F)cc2)[C@H](C)CN([C@@H](C)CO)C(=O)c2cc(NC(=O)NC3CCCCC3)ccc2O1 | x | u
C[C@@H]1CN([C@@H](C)CO)C(=O)c2cc(Br)cnc2O[C@@H]1CN(C)CC1CCCC1 | 10 | 10
O=C(C[C@@H]1CC[C@@H]2[C@H](COC[C@@H](O)CN2C(=O)Nc2cccc(Cl)c2)O1)NCC1CCCCC1 | x | u
CO[C@H]1CN(C)C(=O)c2cc(NC(=O)Nc3cc(F)ccc3F)ccc2OC[C@H](C)N(C(=O)c2cnccn2)C[C@H]1C | 3 | 8
C[C@H](CO)N1C[C@H](C)[C@@H](CN(C)Cc2ccccn2)Oc2cc(C#CC3CC3)ccc2S1(=O)=O | x | u
C[C@@H]1CN([C@@H](C)CO)C(=O)CCCn2nncc2CO[C@@H]1CN(C)C(=O)Nc1cccc2ccccc12 | 14 | 2

Later entries:
Compound | Vaccinia inh Venus | Vaccinia inh
Cc1cccc(-c2ccc([C@@H]3[C@@H](CO)N4CCCCN(C(=O)c5cccnc5)C[C@H]34)cc2)c1 | -23 | -25
Cc1ccc(S(=O)(=O)N[C@H]2CC[C@@H](CCNC(=O)C3CCOCC3)O[C@@H]2CO)cc1 | -8 | -1
CO[C@@H]1CN(C)C(=O)c2cc(NS(C)(=O)=O)ccc2OC[C@H](C)N(C)C[C@H]1C | 12 | -1
CNC(=O)C[C@@H]1CC[C@H]2[C@@H](COc3ccc(NC(=O)Nc4ccc(Cl)cc4)cc3C(=O)N2C)O1 | 1 | 1
Cc1noc(C)c1S(=O)(=O)Nc1ccc2c(c1)C(=O)N([C@@H](C)CO)C[C@@H](C)[C@H](CN(C)C(=O)Nc1cccc3ccccc13)OCCCC[C@@H](C)O2 | 6 | -2
CCC(=O)N(C)C[C@@H]1Oc2cc(-c3ccccc3)ccc2S(=O)(=O)N([C@@H](C)CO)C[C@@H]1C | -12 | 5
Cc1noc(C)c1NC(=O)Nc1ccc2c(c1)C(=O)N([C@H](C)CO)C[C@H](C)[C@H](CN(C)C)O2 | 8 | 9
C[C@@H]1CN([C@H](C)CO)S(=O)(=O)c2ccc(C#C[C@@H](C)O)cc2O[C@H]1CN(C)C(=O)CN(C)C | 5 | 2
CN1C(=O)c2cc(NC(=O)Cc3cccs3)ccc2OC[C@@H]2O[C@@H](CC(=O)O)CC[C@@H]21 | 5 | 6
CS(=O)(=O)Nc1ccc2c(c1)[C@@H]1C[C@@H](CC(=O)NC3CCCCC3)O[C@H](CO)[C@@H]1O2 | 3 | 3

Next results
Compound | Vaccinia inh Venus | Vaccinia inh
CC(C)c1cn(CC[C@H]2CC[C@@H](NC(=O)Nc3cc(Cl)cc(Cl)c3)[C@H](CO)O2)nn1 | -15 | -13
C[C@H]1CN([C@@H](C)CO)C(=O)Cc2cc(NS(=O)(=O)c3ccccc3)ccc2O[C@H]1CN(C)S(C)(=O)=O | 7 | 3
COc1cccc(CN(C)C[C@H]2OCc3cnnn3CCCC(=O)N([C@H](C)CO)C[C@H]2C)c1 | 16 | 12
COc1ccc(S(=O)(=O)Nc2ccc3c(c2)CC(=O)N([C@@H](C)CO)C[C@@H](C)[C@@H](CN(C)Cc2ccc(Cl)c(Cl)c2)O3)cc1 | x | u
COCC(=O)N(C)C[C@H]1Oc2ncc(-c3ccc(C#N)cc3)cc2C(=O)N([C@H](C)CO)C[C@H]1C | 2 | 6
COc1ccc(C[C@H]2CCn3cc(nn3)COC[C@H](Cc3ccccc3)NC2=O)cc1 | 6 | 9
C[C@H](CO)N1C[C@H](C)[C@H](CN(C)S(C)(=O)=O)Oc2cc(C#Cc3ccccc3)ccc2S1(=O)=O | x | u
C[C@@H]1CN([C@@H](C)CO)C(=O)CCCn2cc(nn2)CO[C@H]1CN(C)S(=O)(=O)c1ccc2ccccc2c1 | 4 | -1
CC(=O)N(C)C[C@H]1Oc2ncc(C#C[C@@H](C)O)cc2C(=O)N([C@@H](C)CO)C[C@H]1C | 17 | 34
CCCN1[C@@H]2c3ccc(C4=CCCC4)c(=O)n3C[C@@H]2[C@@H](CO)[C@@H]1C(=O)NC1Cc2ccccc2C1 | 4 | 1

Further structures
Compound | Vaccinia inh Venus | Vaccinia inh
C/C=C/c1ccc([C@@H]2[C@@H](C#N)N(C(=O)Cc3ccccn3)[C@@H]2CO)cc1 | 7 | -7
CCCNC(=O)C[C@@H]1CC[C@@H]2[C@H](COc3ccc(NC(=O)c4cccc(Cl)c4)cc3C(=O)N2C)O1 | -2 | -4
CC(C)CC#Cc1ccc([C@@H]2[C@H](CO)N3C(=O)CN(C(=O)CN4CCOCC4)C[C@@H]23)cc1 | 11 | 22
Cc1noc(C)c1NC(=O)N(C)C[C@H]1Oc2ccc(NS(=O)(=O)c3cn(C)cn3)cc2C(=O)N([C@@H](C)CO)C[C@H]1C | 20 | 26
C[C@H](CO)N1C[C@H](C)[C@H](CN(C)C(=O)CC2CC2)Oc2ncc(C#CC3CC3)cc2C1=O | -3 | 5
Cc1ccc(S(=O)(=O)N(C)C[C@H]2OCCCC[C@@H](C)Oc3ccc(NC(=O)Nc4ccc(C(F)(F)F)cc4)cc3C(=O)N([C@H](C)CO)C[C@@H]2C)cc1 | -5 | -12
COc1ccc(NC(=O)N(C)C[C@@H]2Oc3ncc(-c4ccc(OC)cc4)cc3C(=O)N([C@H](C)CO)C[C@@H]2C)cc1 | -4 | 5
COCC(=O)Nc1ccc2c(c1)OC[C@@H](C)N(CCC(F)(F)F)C[C@H](C)[C@@H](OC)CN(C)C2=O | -6 | -5
C[C@@H]1CN([C@@H](C)CO)C(=O)c2cc(NC(=O)Nc3ccc(C(F)(F)F)cc3)ccc2O[C@@H](C)CCCCO[C@H]1CN(C)CC1CCCCC1 | -22 | -26
Cc1ccccc1S(=O)(=O)N1CC(=O)N2[C@@H](CO)[C@H](c3ccc(C#CCN(C)C)cc3)[C@@H]2C1 | 10 | 16

The listing continues:
Compound | Vaccinia inh Venus | Vaccinia inh
N#C[C@@H]1[C@@H](c2ccccc2C2=CCCCC2)[C@H](CO)N1C(=O)NC1CCCC1 | 2 | 9
COc1ccc2c3c([nH]c2c1)[C@H](CO)N(C(=O)Cc1ccccc1)CC31CCN(C)CC1 | -7 | 0
CN1C(=O)c2cc(NC(=O)Cc3ccccc3)ccc2OC[C@@H]2O[C@H](CC(=O)O)CC[C@H]21 | 7 | 9
O=C(c1ccccc1F)N1C[C@@H]2[C@H](c3ccccc31)[C@H](CO)N2C(=O)c1ccc(F)cc1 | 8 | 10
C[C@H](CO)N1C[C@H](C)[C@@H](CN(C)Cc2ccccc2)Oc2ccc(NS(=O)(=O)c3cn(C)cn3)cc2C1=O | 3 | 7
C[C@H]1CN([C@@H](C)CO)S(=O)(=O)c2ccc(C#CCN(C)C)cc2O[C@@H]1CN(C)Cc1ccccc1F | -7 | -12
COc1ccc(NC(=O)N(C)C[C@H]2Oc3cc(-c4ccncc4)ccc3S(=O)(=O)N([C@@H](C)CO)C[C@H]2C)cc1 | 3 | 14
C[C@H](CO)N1C[C@H](C)[C@@H](CN(C)Cc2ccc(-c3ccccc3)cc2)Oc2c(NC(=O)Nc3ccc4c(c3)OCO4)cccc2C1=O | 25 | 19
C/C=C/c1ccc([C@@H]2[C@H](CO)N3C(=O)CN(Cc4ccc(C(=O)OC)cc4)C[C@@H]23)cc1 | 4 | 3
COc1ccc(NC(=O)N(C)C[C@H]2Oc3c(NS(C)(=O)=O)cccc3C(=O)N([C@H](C)CO)C[C@@H]2C)cc1 | 20 | 30

The list goes on.
Compound | Vaccinia inh Venus | Vaccinia inh
C[C@H](CO)N1C[C@H](C)[C@H](CN(C)Cc2ccncc2)Oc2cc(C3=CCCC3)ccc2S1(=O)=O | -13 | -20
CN1CCN(C(=O)C[C@@H]2CC[C@H](NC(=O)c3ccc4c(c3)OCO4)[C@@H](CO)O2)CC1 | 12 | 13
COCC(=O)N(C)C[C@@H]1Oc2ncc(C#C[C@@H](C)O)cc2C(=O)N([C@H](C)CO)C[C@H]1C | -7 | 0
C[C@@H]1CN([C@H](C)CO)C(=O)Cc2cc(NC(=O)Cc3cn(C)c4ccccc34)ccc2O[C@@H]1CN(C)Cc1ccc(-c2ccccc2)cc1 | -1 | -8
CC(C)NC(=O)N(C)C[C@@H]1Oc2ncc(C#CC3CCCC3)cc2C(=O)N([C@H](C)CO)C[C@@H]1C | 6 | 9
C[C@@H]1CN([C@@H](C)CO)C(=O)Cc2cc(NS(=O)(=O)c3ccc(F)cc3)ccc2O[C@H]1CN(C)C(=O)Nc1ccc(F)cc1 | 11 | 8
CCCC(=O)Nc1ccc2c(c1)C(=O)N(C)C[C@H](OC)[C@H](C)CN(Cc1ccccc1F)[C@@H](C)CO2 | -15 | -17
C[C@@H]1CN([C@H](C)CO)S(=O)(=O)c2ccc(C3=CCCC3)cc2O[C@H]1CN(C)Cc1ccccn1 | 12 | 12
C[C@@H]1CN([C@@H](C)CO)C(=O)c2cc(NC(=O)Nc3ccc4c(c3)OCO4)ccc2O[C@H]1CN(C)S(=O)(=O)c1cn(C)cn1 | 11 | 23
CC(C)NC(=O)N(C)C[C@@H]1Oc2ccc(NS(=O)(=O)c3cccs3)cc2CC(=O)N([C@H](C)CO)C[C@H]1C | 22 | 38

Later entries
Compound | Vaccinia inh Venus | Vaccinia inh
CN(C)C(=O)[C@H]1[C@H](CO)[C@H]2Cn3c(cccc3=O)[C@H]2N1C(=O)C1CCC1 | x | u
COc1ccc(NC(=O)N(C)C[C@@H]2Oc3ncc(C#Cc4ccc(OC)c(OC)c4)cc3C(=O)N([C@H](C)CO)C[C@@H]2C)cc1 | -6 | -7
COc1ccc(NC(=O)Nc2ccc3c(c2)C(=O)N([C@@H](C)CO)C[C@@H](C)[C@H](CN(C)C(=O)Nc2cccc4ccccc24)OCCCC[C@H](C)O3)cc1 | 22 | 36
COc1cccc(S(=O)(=O)Nc2ccc3c(c2)[C@H]2C[C@H](CC(=O)NCc4ccccc4F)O[C@H](CO)[C@H]2O3)c1 | x | u
C[C@@H]1CCCCO[C@@H](CN(C)Cc2ccc(C(=O)O)cc2)[C@H](C)CN([C@H](C)CO)C(=O)c2cc(NC(=O)Nc3ccc(C(F)(F)F)cc3)ccc2O1 | 0 | -5
CCCC(=O)Nc1ccc2c(c1)C(=O)N(C)[C@@H]1CC[C@H](CC(=O)NCC3CCCCC3)O[C@@H]1CO2 | 1 | -5
CC(C)NC(=O)Nc1ccc2c(c1)C(=O)N([C@H](C)CO)C[C@@H](C)[C@H](CN(C)S(=O)(=O)c1ccc(F)cc1)OCCCC[C@@H](C)O2 | -1 | -3
COc1ccc(S(=O)(=O)N(C)C[C@@H]2Oc3c(NS(=O)(=O)c4cccs4)cccc3C(=O)N([C@@H](C)CO)C[C@@H]2C)cc1 | 0 | 1
COc1cccc(NC(=O)N(C)C[C@@H]2Oc3cc(-c4cccc(C(=O)N(C)C)c4)ccc3S(=O)(=O)N([C@@H](C)CO)C[C@H]2C)c1 | 10 | 4
CCCC#Cc1ccc([C@@H]2[C@@H](CO)N3C(=O)CN(C(=O)Nc4ccc(F)cc4)C[C@H]23)cc1 | x | u

Following part:
Compound | Vaccinia inh Venus | Vaccinia inh
C[C@H]1CCCCO[C@H](CN(C)Cc2ccncc2)[C@@H](C)CN([C@@H](C)CO)C(=O)c2cc(NS(C)(=O)=O)ccc2O1 | 15 | 21
CCCC(=O)Nc1ccc2c(c1)C(=O)N(C)C[C@@H](OC)[C@H](C)CN(Cc1cncnc1)[C@@H](C)CO2 | 7 | 12
CC(C)NC(=O)N[C@H]1C=C[C@H](CC(=O)NC2Cc3ccccc3C2)O[C@@H]1CO | 8 | 8
COc1cccc(C(=O)Nc2ccc3c(c2)OC[C@H](C)N(C(C)=O)C[C@@H](C)[C@@H](OC)CN(C)C3=O)c1 | 8 | 11
Cc1ccc(S(=O)(=O)N(C)C[C@H]2OCCCC[C@H](C)Oc3ccc(NC(=O)Nc4ccccc4)cc3C(=O)N([C@@H](C)CO)C[C@H]2C)cc1 | 15 | 12
CCS(=O)(=O)Nc1ccc2c(c1)C(=O)N(C)[C@@H]1CC[C@H](CC(=O)NCCCN3CCOCC3)O[C@H]1CO2 | 8 | 3
O=C(C[C@@H]1CC[C@@H]2[C@H](COC[C@H](O)CN2Cc2cccc(-c3ccncc3)c2)O1)N1CCN(c2ccccc2)CC1 | x | u
COc1ccc2c3c(n(C)c2c1)[C@H](CO)N(C(=O)c1ccccn1)CC31CN(C)C1 | 6 | 8
C[C@H]1CN([C@@H](C)CO)C(=O)c2cc(C3=CCCC3)cnc2O[C@H]1CN(C)Cc1ccccc1 | -6 | -2
